Vaccinia mCherry = inhibitors of vaccinia virus infection (mCherry reporter signal) | AID 720579 | Potency, µM (series often up to 36.5 µM), for inactives: at the top dose activity change, negative = inhibition, actives largely listed as inhibitors | actives 0.63% (n = 310,000) | Vaccinia virus mCherry reporter infection, fluorescence; about a quarter of the inactives have no number; active = well fitted inhibition curve with a large enough effect; inconclusive = small, poorly fitted or top-dose-only effect; inactive = no such curve, though single readings can be large or run the other way; tested in A549 cells; also: nearly all actives have a fitted effect of over 35% in size; inactives centre near -10
Vaccinia Venus = vaccinia inhibition (Venus reporter). Vaccinia virus Venus reporter expression, fluorescence. Potency, µM (highest dose often 36.5 µM), inactives show at the highest dose activity change, negative = inhibition, hits mostly inhibitors. actives 0.46% (n = 330,000). AID 720580; active means well fitted inhibition curve with a large enough effect; inconclusive means small, poorly fitted or top-dose-only effect; inactive means no such curve, though single readings can be large or run the other way; tested in A549 cells; also: nearly all actives have a fitted effect of over 30% in size; inactives centre near -10
An asterisk follows results filed as active; i = inactive; ? = inconclusive; nt = no result given; & = joins results of further samples; [ ] = dose if it differs, or a comment. % is scaled to controls: 0 for no effect and ±100 for the full control effect; potency is read from the fitted curve at half-maximal effect. Not a hit list; any-hit rate near 0.82%.

item | mol | Vaccinia Venus | Vaccinia mCherry
1 | CCC(C)(C(=O)NC1CCCC1)N(CC1CCCO1)C(=O)CNC(=O)c1ccccc1 (configuration not stated) | -7% | i
2 | CCC(C)[C@H](NC(=O)N1CCCC1)C(=O)OC (some centres not stated) | -5% | i
3 | O=C(CSc1cccs1)NCCc1ccccc1 | -14% | -19%
4 | COc1ccc(C(=O)C2CCN(CC(=O)NCc3ccccc3)CC2)cc1 | -17% | -26%
5 | CCOc1ccc(OCc2ccc(C(=O)NN=Cc3ccc[nH]3)cc2)cc1 | ? | ?
6 | CCc1nn2c(=O)cc(COC(=O)c3cccc(NC(=O)c4ccccc4Cl)c3)nc2s1 | -15% | -15%
7 | Cc1ccc(S(=O)(=O)N2CCC(=O)N([C@H](COC(=O)Nc3ccccc3)Cc3ccccc3)CC2)cc1 | -4% | -18%
8 | COc1ccc(Cl)cc1NC(=O)CN(C)C1CCCCC1 | -26% | i
9 | Clc1ccc(Cn2cccc2C2=NCCO2)cc1 | -16% | i
10 | CC1CCC(C(C)C)C(OCC[N+](C)(C)C)C1 (configuration not stated) | -8% | i
11 | CCN(c1ccccc1)c1nnc(NC(=O)Nc2ccc(Br)cc2F)s1 | 0% | 0%
12 | CCOc1cccc(N2C(=O)CC(n3cnc4ccccc43)C2=O)c1 (configuration not stated) | -11% | -12%
13 | CC(C)(C)OC(=O)N1CCC(C(=O)Nc2ccc(C(=O)NCc3ccccc3)cc2)CC1 | ? | -23%
14 | O=C(O)c1cccc(NC(=S)N/N=C/c2cccnc2)c1 | -3% | i
15 | COc1ccc2c(c1)C(C)=CC(C)(C)N2C(=O)C(C)N1C(=O)c2ccccc2C1=O (configuration not stated) | -8% | -6%
16 | COc1cc(SC)ccc1C(=O)OCC(=O)NC(=O)NC(C)C | -25% | i
17 | Nc1nn(-c2ccccc2)nc1C(=O)OCc1ccccc1 | -13%&8% | -21%&0%
18 | COC(=O)N1CCN(C(=O)Cc2ccc(Cl)c(Cl)c2)C(CN2CCCC2)C1 (configuration not stated) | -10% | i
19 | Cc1cc(=O)[nH]c(N/N=C/c2ccc(-c3ccc([N+](=O)[O-])cc3)o2)n1 | 11% | -13%
20 | COc1ccccc1C=NN=C(N)C(N)=NN=Cc1ccccc1OC | -11% | -1%
21 | N#CC1=C(N)OC2=C(C(=O)CC(c3ccccc3)C2)C1c1ccc2c(c1)OCO2 (configuration not stated) | -9% | -30%
22 | O=C(CNC(c1ccccc1)c1ccccc1)Nc1c(F)cccc1F | -4% | i
23 | O=C(CN1CCN(c2ccccn2)CC1)Nc1cccc(S(=O)(=O)N2CCOCC2)c1 | -4% | i
24 | O=C(CCNC(=O)c1ccc(Br)cc1)Nc1nc2ccccc2[nH]1 | 4% | 5%
25 | Cc1ccc(S(=O)(=O)N2CCOCC2)cc1NC(=O)CSc1nnnn1C | -6% | i
26 | COc1cc(NC(=O)[C@@H]2O[C@H](CO)[C@@H](O)[C@H]2O)cc(OC)c1OC | -7% | 28%
27 | COc1ccc2c(c1)NC(c1cccnc1)=NC(c1ccc(F)cc1)=N2 | -6% | -10%
28 | COc1cn(CC(=O)Nc2cccc(C)c2C)c(CN2CCCCC2)cc1=O | -1% | -12%
29 | O=C(CN1C(=O)c2cccc3cccc1c23)Nc1cccnc1 | -13% | -14%
30 | COc1ccc(Nc2nc(C)c(C(C)=O)s2)cc1 | 3% | i
31 | CCOc1ccc(C(=O)OCCCN(C)C)cc1 | -8% | -14%
32 | CC(=O)N1CCC(N(CCN2CCOCC2)C(=S)Nc2ccc(C)cc2)CC1 | 12% | -22%
33 | CCCC(=O)OC1CC(C)N(C(=O)c2ccccc2)c2ccc(C)cc21 (configuration not stated) | -23% | nt
34 | Cc1noc(C)c1NC(=O)N(C)C[C@H]1Oc2ccc(NC(=O)CCN3CCOCC3)cc2C(=O)N([C@H](C)CO)C[C@@H]1C | -4% | -24%
35 | CCN(C(C)=O)c1nc(CCl)cs1 | -5% | i
36 | O=C(C[n+]1ccccc1Cl)c1ccc(Br)cc1 | -14% | -13%
37 | O=c1c2ccccc2nc(SCc2ccc([N+](=O)[O-])cc2)n1CCCO | -19% | -9%
38 | O=C(CSC(=S)N1CCCC1)Nc1ncc(Cl)cc1Cl | -14% | -14%
39 | Cc1ccc(-c2csc3ncnc(SCC(N)=O)c23)cc1 | -17% | 0%
40 | COc1ccc(/C=C2/C(=N)N3C(=NC2=O)Sc2cc(S(C)(=O)=O)ccc23)cc1OC | -5% | -18%
41 | COc1ccc(C(C(=O)NCC2CCCO2)N(C(=O)c2snc(C(N)=O)c2N)c2ccccc2C)cc1OC (configuration not stated) | -16% | -20%
42 | CC1=C(C#N)C(/C=N/OCc2ccc(Cl)cc2)CC(=O)N1 (configuration not stated) | -6% | -10%
43 | CN1CCN(S(=O)(=O)c2ccc(N3CCN(C(c4ccccc4)c4ccccc4)CC3)nc2)CC1 | 2% | 3%
44 | CCNC(=S)N(Cc1cccs1)Cc1cc2cc(OCC)ccc2[nH]c1=O | -7% | -9%
45 | O=[N+]([O-])c1ccccc1/C=C/CN1CCCCC1 | -1% | -14%
46 | CNC(=S)N1N=C(c2cccs2)CC1c1ccc(OC)cc1 (configuration not stated) | -7% | i
47 | NC(=O)c1cc2cc(Br)ccc2oc1=NCc1ccccc1 | ? | nt
48 | COc1ccc(Cl)cc1NS(=O)(=O)c1c(C)[nH]c(=O)[nH]c1=O | -7% | -9%
49 | Cc1ccc2[nH]c(CSc3nnc(NC(=O)c4ccccc4F)s3)cc(=O)c2c1 | -14% | i
50 | CCCCC#Cc1ccc2c(c1)COc1c3ccccc3nn1-2 | -9% | -4%
51 | CCNc1nc(NC(C)C)nc(Oc2ccc(OCCOc3ccc(C)cc3)nn2)n1 | -13% | -18%
52 | O=C1Nc2ccc(S(=O)(=O)NCCC3=CCCCC3)c3cccc1c23 | -17% | nt
53 | COc1cc(C2C(C(=O)c3cccs3)=C(O)C(=O)N2CCN2CCOCC2)ccc1OCCC(C)C (configuration not stated) | 0% | i
54 | CCCSc1nc2sc3c(c2c(=O)[nH]1)CC(C)CC3 (configuration not stated) | -6% | -19%
55 | COc1ccc(C2CC(=O)c3c([nH]c(C(=O)OC4CCCCCC4)c3C)C2)cc1 (configuration not stated) | -17% | -11%
56 | CCN(C(=O)CSc1nnc(Cc2ccccc2F)n1N)C1CCS(=O)(=O)C1 (configuration not stated) | -11% | -12%[1.46 µM]
57 | CN(CC(=O)Nc1ccccc1Cl)C(=O)COC(=O)c1ccc(S(=O)(=O)C(F)F)cc1 | -3% | -19%
58 | CC(=O)c1ccc(OC2(C)CCN(Cc3cc4ccccc4[nH]3)C2)cc1 (configuration not stated) | -19% | -2%
59 | CCOC(=O)C1CCCN(S(=O)(=O)CCNC(=O)c2ccc(F)cc2)C1 (configuration not stated) | -6% | i
60 | Cc1c(NC(=O)N(C)C)c(=O)n(-c2ccccc2)n1C | -11% | nt

7 compounds drawn at random from those above:
item | mol | Vaccinia Venus | Vaccinia mCherry
60 | Cc1c(NC(=O)N(C)C)c(=O)n(-c2ccccc2)n1C | -11% | nt
49 | Cc1ccc2[nH]c(CSc3nnc(NC(=O)c4ccccc4F)s3)cc(=O)c2c1 | -14% | i
53 | COc1cc(C2C(C(=O)c3cccs3)=C(O)C(=O)N2CCN2CCOCC2)ccc1OCCC(C)C (configuration not stated) | 0% | i
58 | CC(=O)c1ccc(OC2(C)CCN(Cc3cc4ccccc4[nH]3)C2)cc1 (configuration not stated) | -19% | -2%
52 | O=C1Nc2ccc(S(=O)(=O)NCCC3=CCCCC3)c3cccc1c23 | -17% | nt
59 | CCOC(=O)C1CCCN(S(=O)(=O)CCNC(=O)c2ccc(F)cc2)C1 (configuration not stated) | -6% | i
55 | COc1ccc(C2CC(=O)c3c([nH]c(C(=O)OC4CCCCCC4)c3C)C2)cc1 (configuration not stated) | -17% | -11%

Continuation.
item | mol | Vaccinia Venus | Vaccinia mCherry
61 | CCOc1cc(-c2sc(Nc3ccccc3)n[n+]2C)ccc1OC | -20% | i
62 | CCNC(=S)N(Cc1cc2cc(C)cc(C)c2[nH]c1=O)C1CCCC1 | -29% | -10%
63 | CN1C(=O)CC(N2CCC(C(N)=O)CC2)C1=O (configuration not stated) | -7% | -14%[1.46 µM]
64 | CC(C)Cn1cc(NC(=O)Nc2cccc(C(F)(F)F)c2)c2ccccc2c1=O | ? | -24%
65 | CCOc1ccc(CN2CCNC(=O)C2CC(=O)O)cc1 (configuration not stated) | -15% | i
66 | CCOc1ccccc1N(CC(=O)N1CCCCCC1)S(C)(=O)=O | -5% | -10%
67 | CCOc1ccccc1C(=O)Nc1ccc2c(c1)C(=O)NC2=O | 0% | i
68 | CC(=O)c1ccc(S(=O)(=O)Nc2ccccc2C(=O)NC2CC2)cc1 | -4% | -14%
69 | O=C(C[C@@H]1C[C@@H]2c3cc(NS(=O)(=O)c4ccc(F)cc4)ccc3O[C@@H]2[C@H](CO)O1)N1CCc2ccccc2C1 | -21% | -17%
70 | Cc1ccccc1-c1nc(CS(=O)(=O)CC(=O)NCc2ccccc2)c(C)o1 | -18% | i
71 | Cc1cccc(OC(=O)c2ccc3c(=O)n4c(nc3c2)CCC4)c1 | -7% | -8%
72 | O=C(NNC(=O)C1C2CCC(C2)C1C(=O)O)c1ccc(Cl)cc1 (configuration not stated) | -21% | -22%

Molecules above with a cyano group (2):
item | mol | Vaccinia Venus | Vaccinia mCherry
21 | N#CC1=C(N)OC2=C(C(=O)CC(c3ccccc3)C2)C1c1ccc2c(c1)OCO2 (configuration not stated) | -9% | -30%
42 | CC1=C(C#N)C(/C=N/OCc2ccc(Cl)cc2)CC(=O)N1 (configuration not stated) | -6% | -10%

The list goes on.
item | mol | Vaccinia Venus | Vaccinia mCherry
73 | Cc1nn(CC(=O)OCC(=O)c2ccccc2)c(C)c1[N+](=O)[O-] | -4% | -21%
74 | CC(C)c1ccc(S(=O)(=O)c2nnn3c2nc(NCc2cccs2)c2sccc23)cc1 | -12% | -11%
75 | C[C@H]1CC[C@@H]2N(C1)C[C@H]1[C@@H]3C[C@H]4[C@@H](CC(=O)[C@H]5C[C@@H](O)CC[C@@]54C)[C@@H]3CC[C@H]1[C@]2(C)O | -9% | -13%
76 | COc1ccccc1CNC(=O)CCCn1c(=O)c2ccccc2n(Cc2ccc(F)cc2)c1=O | -8% | -21%
77 | CCn1nccc1NC(=O)c1ccc2sc([C@@H]3O[C@H](CO)[C@H](O)[C@H](O)[C@H]3O)nc2c1 | -7% | 16%
78 | CN(C)S(=O)(=O)c1cccc(COC(=O)c2cc([N+](=O)[O-])ccc2N2CCOCC2)c1 | -9% | ?
79 | O=C(CSc1nnc(NC(=O)C2CC(=O)N(c3ccc(F)cc3)C2)s1)NCc1ccco1 (configuration not stated) | -7% | -10%
80 | O=c1[nH]ncc2c3ccccc3n(Cc3ccccc3F)c12 | -25% | 0%[1.46 µM]
81 | COc1ccc(C2CC(=O)c3ccccc3O2)cc1 (configuration not stated) | -8% | i
82 | Cc1cccc(NC(=O)CCn2nc(C)c3c(C)n(-c4ccccc4)nc3c2=O)c1C | -12% | -17%
83 | Cc1ccc(CNC(=O)c2cc(COc3c(F)cccc3F)on2)s1 | -2% | -10%
84 | Cn1c(=O)c2sccc2n2c(CCC(=O)NCc3ccccc3)nnc12 | -10% | 0%
85 | COC(=O)[C@@H]1CCCN1C(=O)CCc1nnc(CCc2c[nH]c3ccccc23)o1 | -5% | -9%
86 | CC(C)Cc1nc(Nc2ccc(S(=O)(=O)N3CCCC3)cc2)c2nnn(Cc3ccccc3)c2n1 | ? | ?
87 | C[C@H](CO)NC(=O)c1nc[nH]c1C(=O)N[C@H](C)c1ccccc1 | -14% | -6%
88 | COc1ccc(C(=O)N2CCN(c3ccc(NC(=O)Cc4ccccc4)cc3)CC2)cc1 | -30% | -13%
89 | Cc1ccccc1-c1noc(-c2cccnc2NCc2ccco2)n1 | 3% | -4%
90 | Cc1cccc(C)c1NC(=S)NCc1ccncc1 | -4% | -2%
91 | Cc1ccc(N2C(=O)c3ccccc3C2Nc2ccccc2F)nc1 (configuration not stated) | -2% | -22%
92 | COc1ccc(NC(=O)CN(C)C(=O)c2ccc(OCc3ccccc3)c(OC)c2)cc1 | -8% | i
93 | O=C(NNC(=O)c1ccc(-n2cncn2)c([N+](=O)[O-])c1)c1ccc(Cl)cc1 | -13% | -13%
94 | CCCCNC(=O)C(CC)Sc1nc2ccccc2c(=O)n1CCc1ccc(OC)c(OC)c1 (configuration not stated) | -5% | -17%
95 | COC(=O)c1cn(CC(=O)N2CCCCCC2)c2ccccc12 | -5% | -12%
96 | Cc1c(C(=O)Nc2ccccc2Br)oc2ccc(S(=O)(=O)N3CCOCC3)cc12 | ? | -7%
97 | CC(Cc1ccccc1)NC=O (configuration not stated) | ? | ?
98 | COc1ccc(OCC(=O)NCCCn2ccnc2)cc1 | 8%[7.34 µM] | -7%[7.34 µM]
99 | C[C@H](CO)N1C[C@H](C)[C@@H](CN(C)C(=O)Nc2ccccc2F)OCc2cnnn2CCCC1=O | -8% | -9%
100 | Cc1nnc(SCC(=O)Nc2nc3c(s2)CC(C)CC3)s1 (configuration not stated) | ? | nt
101 | CCOc1ccc(OCC)c(NS(=O)(=O)c2cn(C)cn2)c1 | -25%[7.34 µM] | 0%[7.34 µM]
102 | CC(C)(C)C(=O)Nc1nc(-c2ccc3c(c2)OCO3)cs1 | -9% | -13%
103 | Cc1ccc(C)c(C(=O)c2c(N)c(-c3nc(-c4ccc5c(c4)OCO5)cs3)c3ccccn23)c1 | 1% | -4%
104 | C[N+](C)(C)CC#CCOC(=O)Nc1cccc(Cl)c1 | -4%&-25% | -20%&-13%
105 | O=S(=O)(c1ccc(-c2ccon2)s1)N1CCN(CCN2CCOCC2)CC1 | -14% | -16%
106 | O=c1c2ccccc2nc(COc2ccccc2)n1/N=C/c1cc([N+](=O)[O-])ccc1O | -23% | ?
